Rango dissoc inh = inhibitors of RanGTP-induced Rango-importin beta complex dissociation; O95149+P62826; Biochemical FRET Rango-importin beta, RanGTP-induced dissociation; Potency, µM (series often up to 46.1 µM), inactives show at the top dose activity change, negative = inhibition; 0.071% of 340,000 active; AID 540253; active means falling FRET ratio curve, often poorly fitted, with flat reads before Ran was added; inconclusive means other falling curves, or compound fluorescence or quenching; inactive means flat or rising ratio curve;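 also: potency is read from the fitted curve at half-maximal effect; % of control where 0% means no effect; nearly all actives have a fitted effect of over 45% in size; -100% = wells without RanGTP and RCC1; the record marks most hits as doubtful in a second field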
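Two FRET readings bracket the reaction: one 5 min after compound meets Rango–importin beta, another 45 min after RanGTP-RCC1 (0.6 uM Ran, 0.2 uM RCC1, 2 mM GTP) is added. Only the second defines inhibition.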
miR-21 FLuc = raises the signal of a miR-21 reporter; HeLa miR-21 FLuc reporter, luciferase, 48 h; Potency, µM (top dose mostly 38.3 µM), for the others: top-dose reporter change, positive = more light; 340,000 tested, under 10 active; AID 2288; active = well fitted rising curve with a large enough effect; inconclusive = small, poorly fitted or top-dose-only effect; inactive = no such curve, though single readings can be large or run the other way;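 also: % of control where 0% means no effect; miR-21 action dims this reporter so a rising signal means less miR-21 action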
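Compounds were titrated across several concentrations (up to approximately 40 uM) and incubated 48 hours with HeLa miR-21-FLuc reporter cells (miR-21 target sequence downstream of FLuc, endogenous miR-21). Readout was firefly luciferase luminescence after lytic detection reagent.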
Rango complex inh = Rango-importin beta binding inhibition; Q14974; Potency, µM (series often up to 92.2 µM), inactives show at the top dose inhibition of complex formation; Rango CFP/YFP FRET sensor + importin beta, 45 min; 0.031% of 340,000 active; active = rising FRET ratio curve, often small or poorly fitted; inconclusive = mostly compound fluorescence or quenching in the first reads; inactive = flat curves in all reads;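 also: potency is read from the fitted curve at half-maximal effect; 0% = DMSO wells and 100% = buffer wells lacking importin beta; nearly all actives have a fitted effect of over 15% in size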
Target sequence (Q14974 whole entry, looked up): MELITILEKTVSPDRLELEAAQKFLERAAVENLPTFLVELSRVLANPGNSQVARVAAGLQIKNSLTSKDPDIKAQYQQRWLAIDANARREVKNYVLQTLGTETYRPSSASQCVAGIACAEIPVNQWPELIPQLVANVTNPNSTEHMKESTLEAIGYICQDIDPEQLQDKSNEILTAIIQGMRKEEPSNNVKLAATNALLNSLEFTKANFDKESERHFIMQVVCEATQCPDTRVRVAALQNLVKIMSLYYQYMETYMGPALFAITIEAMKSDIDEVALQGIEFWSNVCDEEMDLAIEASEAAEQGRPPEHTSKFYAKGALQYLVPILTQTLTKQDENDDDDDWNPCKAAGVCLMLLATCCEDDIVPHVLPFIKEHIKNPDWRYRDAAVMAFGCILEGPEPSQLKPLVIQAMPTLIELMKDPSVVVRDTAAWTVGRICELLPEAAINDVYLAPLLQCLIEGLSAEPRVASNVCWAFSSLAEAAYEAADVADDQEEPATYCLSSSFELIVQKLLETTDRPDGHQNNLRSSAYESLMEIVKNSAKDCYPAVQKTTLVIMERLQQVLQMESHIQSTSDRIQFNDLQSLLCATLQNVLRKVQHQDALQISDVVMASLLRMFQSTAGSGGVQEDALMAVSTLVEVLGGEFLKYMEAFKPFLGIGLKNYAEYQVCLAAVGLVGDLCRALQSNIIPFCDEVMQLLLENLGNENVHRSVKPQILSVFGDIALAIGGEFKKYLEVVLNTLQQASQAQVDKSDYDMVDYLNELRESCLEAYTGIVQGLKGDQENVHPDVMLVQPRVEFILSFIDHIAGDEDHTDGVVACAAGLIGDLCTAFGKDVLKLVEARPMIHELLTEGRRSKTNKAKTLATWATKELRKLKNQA
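FRET biosensor (snurportin 1 IBB flanked by EYFP and cerulean), 50 nM, with compound 5 min, then 0.125 microM importin beta in PBS, 1 mM DTT, 0.02% Tween-20, 0.1% BSA. CFP/YFP ratio read after 45 min at room temperature; pre-read flags interference.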
GLA inh pH 4.5 = inhibitors of human alpha-galactosidase A at pH 4.5; P06280; purified enzyme, 4-MU-alpha-Gal fluorescence, pH 4.5; activity change, negative = inhibition, % at 105 µM; 230,000 tested, under 10 active; inconclusive = small, poorly fitted or top-dose-only inhibition, or a rising curve; inactive = flat fitted curve, though single readings scatter; no compound was filed as active;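 also: 0% = full activity with enzyme and -100% = basal without enzyme; dose as in the result columns while the protocol names 77 µM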
* marks the source's active call; other numbers are inactive results; ? = inconclusive; · = no result given; & = joins results of further samples.

SMILES | Rango complex inh | Rango dissoc inh | GLA inh pH 4.5 | miR-21 FLuc
CC(C(=O)Nc1nccs1)N1C(=O)c2ccccc2S1(=O)=O (stereo not drawn) | 0.0% | 0% | · | ·
O=C1COc2ccc(C(=O)COC(=O)c3ccco3)cc2N1 | -2.0% | -9% | 2 | 0%
C[C@H](CO)N1C[C@H](C)[C@@H](CN(C)C(=O)Nc2ccc3c(c2)OCO3)Oc2ccc(NC(=O)C3CCCCC3)cc2C1=O | -1.8% | 13% | · | ·
COc1ccc(CCN2CC(C(=O)NCCc3ccc(C(F)(F)F)cc3)CCC2=O)cc1 (stereo not drawn) | -2.0% | 1% | · | 6%
OC(CNCc1cccs1)c1ccccc1 (stereo not drawn) | 3.9% | 15% | · | -13%
C=CCNc1nc2c(c(=O)[nH]c(=O)n2C)n1CCCCC | 2.4% | 4% | -5 | -13%
Cc1ccc(Sc2ccc(C(=O)NC(C)C)cc2[N+](=O)[O-])cc1 | 1.0% | 5% | 3 | -4%
O=C(c1ccc2c(=O)n(Cc3ccc(Cl)cc3)c(=S)[nH]c2c1)N1CCCC1 | 0.4% | 10% | · | 1%
O=C1CN(C(=O)COc2ccccc2Cl)c2ccccc2N1 | ? | 1% | · | ·
COc1ccc(/C=N/OCC(=O)NC(c2ccccc2)c2ccccc2)cc1OC | ? | -20% | 5 | 15%
O=C1CS/C(=N\c2ccccn2)N1C1CCCCC1 | -5.3% | -3% | 7 | -2%
Fc1ccccc1CSc1ncnc2c1ncn2C1CCCO1 (stereo not drawn) | 0.9% | 10% | · | ·
O=C(c1cccc(C(F)(F)F)c1)C1CCCN(C(=O)CN2CCOC2=O)C1 (stereo not drawn) | -1.4% | 8% | · | -13%
Fc1ccc(/C=N/Nc2nnnn2-c2ccccc2)cc1 | 0.7% | 1% | -1 | -1%
CCN(CC)c1ccc(NC(=O)CN2CCN(c3nc(C)cc(C)n3)CC2)cc1 | 0.2% | -1% | -7 | 25%
O=C(CN(Cc1ccco1)C(=O)CNS(=O)(=O)c1ccc(F)cc1)NCc1ccccc1 | 1.4% | 6% | · | 2%
O=S(=O)(Nc1ccc(Br)cc1)N1CCOCC1 | 0.1% | -2% | · | 1%
CCOc1ccc(NC(=O)CN(C)C(=O)CC2CCCCC2)cc1OCC | -2.4% | -4% | · | ·
COC(=O)c1c(N)nc(C)n1-c1ccc(OC)cc1 | 4.2% | 0% | -11 | 1%
O=C(Nc1nc(-c2ccc(F)c(F)c2)cs1)c1cc([N+](=O)[O-])ccc1N1CCOCC1 | -1.7% | 0% | -4 | -13%
NCCNC(=O)Cc1cccc(NC(=O)Cc2ccc(Nc3ncnc4c3ncn4[C@@H]3O[C@H](CO)[C@@H](O)[C@H]3O)cc2)c1 | -0.6% | 23% | -1 | -30%
Cc1ccccc1NC(=O)CSCCO | -1.1% | -5% | 6 | 2%
C/C(=C\c1ccccc1)C(=O)Nc1nc2ccc([N+](=O)[O-])cc2s1 | ? | ? | -10 | -31%
O=C(C[C@H]1C/C=C\C[C@@H](Cc2ccc(F)cc2)C(=O)O[C@H](c2ccccc2)CNC1=O)N[C@@H](CO)Cc1ccccc1 | ? | -1% | · | ·
CCOC(=O)C1CCN(C2CCN(C(=O)c3oc4c(C)c(C)ccc4c3C)CC2)CC1 | ? | -23% | · | -36%
NCc1cccc(CNc2ccc([N+](=O)[O-])cc2C(N)=O)c1 | 0.9% | 6% | · | ·
CCOC(=O)Cc1csc(/N=C/c2c(O)n(-c3ccccc3C(F)(F)F)c(=O)c3ccccc23)n1 | ? | ? | 6 | -1%
FC(F)(F)c1cccc(OCC2CNC(=S)O2)c1 (stereo not drawn) | -0.8% | 9% | 1 | 8%
Cc1cc(C)n(-c2nc3ccccc3nc2N2CCC(C)CC2)n1 | ? | ? | -2 | 1%
CCn1nc(C(=O)NNC(=O)C(Cc2ccccc2)NC(N)=O)c2ccccc2c1=O (stereo not drawn) | 1.7% | 5% | · | ·
O=C(CSc1nc2scc(-c3ccco3)c2c(=O)n1-c1ccccc1)N1CCOCC1 | -3.7% | 5% | -6 | 1%
COc1ccc(CC(=O)NC(C)c2ccc3ccccc3c2)cc1 (stereo not drawn) | 1.3% | -2% | · | -3%
Cc1ccccc1NC(=O)NCc1ccccn1 | 0.3% | 1% | · | ·
COc1ccc(C(=O)Nn2cnnc2)cc1 | 1.1% | 0% | 0 | -5%
C/C(=N\OCC(=O)Nn1c(=O)[nH]c2ccccc2c1=O)c1ccccc1 | 0.6% | 10% | 3 | -4%
Cc1noc(C)c1CSCC(=O)N(C)CC(=O)Nc1ccccc1Br | 3.2% | -3% | · | ·
N#CCCCCn1c(-c2cncs2)nc2ccccc21 | 2.6% | 4% | -24 | -11%
C=CCN1C(=O)C2C(C(=O)NCc3ccccc3)C3(C)C=CC2(O3)C1C(=O)NC(C)(C)C (stereo not drawn) | -2.4% | -18% | 0 | 1%
Cc1cc(C)cc(-n2nnnc2-c2cn(C)nc2C(F)(F)F)c1 | -3.2% | -10% | -17 | -4%
CCC1CCCCN1CCCNC(=O)c1ccc(CS(=O)(=O)c2ccccc2OC)o1 (stereo not drawn) | 4.2% | 10% | · | -2%
CCOc1ccc(C(=O)CSCCC(=O)O)cc1 | -1.8% | -7% | 9 | ?
CCOC(=O)N1CCN(c2c(N3CCN(c4ccc(OC)cc4)CC3)c(=O)c2=O)CC1 | -0.1% | -11% | 1 | 0%
Cc1cccc(C2c3[nH]c4ccccc4c3CCN2C(=O)CN2CCOC2=O)n1 (stereo not drawn) | 0.8% | 17% | -14 | -3%
O=C(Cc1ccc(Cl)cc1)c1c[nH]c(C(=O)NCCCn2ccnc2)c1 | -0.3% | 1% | -6 | 0%
Cc1cccc(NC(=S)NCCc2c[nH]c3ccccc23)c1 | -1.0% | 22% | -8 | -9%
C=CCN(C)CCCNC(=O)/C=N/O | · | · | 6 | -2%
COc1ccc(OCCCC(=O)ON=C(N)c2ccccc2Cl)cc1 | -2.6% | -8% | · | ·
Cc1nn(CC(=O)NCCc2ccc(Cl)cc2)c(=O)c2cccn12 | 4.9% | 7% | · | -5%
O=C(/C=C/c1cnc2ccccc2n1)NC1CCCCCC1 | -0.9% | -16% | 4 | -57%
CCn1c(SCCC(C)C)nnc1-c1c[nH]c2ccccc12 | 3.0% | 6% | -5 | 23%
CCC(C)c1ccc(NC(=O)C2CCN(c3ncccn3)CC2)cc1 (stereo not drawn) | -6.1% | -2% | -6 | -9%
CN1/C(=C\C(=O)c2ccco2)C(C)(C)c2ccccc21 | ? | ? | -3 | ?
CCOCCSc1nc2c(c(=O)[nH]c(=O)n2C)n1CCCc1ccccc1 | 1.0% | 12% | 1 | -13%
O=C(COC(=O)c1cc([N+](=O)[O-])ccc1N1CCCC1)Nc1ccccc1OC(F)F | 4.4% | -18% | · | ·
Cn1c(=O)c2c(nc(NN=C3CCCCC3)n2C)n(C)c1=O | -0.6% | -18% | 16 | 7%
CCC(CC)NC(=O)CON=C1c2ccccc2-c2ccccc21 | -2.7% | 11% | 6 | -6%
Cc1ccc(-c2nc(C3CCCN(S(=O)(=O)c4ccc(C(F)(F)F)cc4)C3)no2)cc1 (stereo not drawn) | 2.5% | -2% | -11 | -4%
CC(=O)Nc1ccc(NC(=O)CSc2nccn2Cc2ccc(Cl)cc2)cc1 | 3.4% | 14% | · | 15%
Cc1onc(-c2ccccc2Cl)c1C(=O)NNC(=O)c1cccc(F)c1 | 0.3% | 23% | · | -3%
CC(=O)N1c2ccc(S(=O)(=O)NCCC(=O)NCc3ccc(F)cc3)cc2CC1C (stereo not drawn) | 2.2% | 25% | · | 0%

Rewritten as labelled records: part of the list above
compound: Cn1c(=O)c2c(nc(NN=C3CCCCC3)n2C)n(C)c1=O
  Rango complex inh: -0.6%
  Rango dissoc inh: -18%
  GLA inh pH 4.5: 16
  miR-21 FLuc: 7%

compound: CCC(CC)NC(=O)CON=C1c2ccccc2-c2ccccc21
  Rango complex inh: -2.7%
  Rango dissoc inh: 11%
  GLA inh pH 4.5: 6
  miR-21 FLuc: -6%

compound: CN1/C(=C\C(=O)c2ccco2)C(C)(C)c2ccccc21
  Rango complex inh: ?
  Rango dissoc inh: ?
  GLA inh pH 4.5: -3
  miR-21 FLuc: ?

compound: CCC(C)c1ccc(NC(=O)C2CCN(c3ncccn3)CC2)cc1 (stereo not drawn)
  Rango complex inh: -6.1%
  Rango dissoc inh: -2%
  GLA inh pH 4.5: -6
  miR-21 FLuc: -9%

(list continues)
SMILES | Rango complex inh | Rango dissoc inh | GLA inh pH 4.5 | miR-21 FLuc
CCCOc1ccc(C2/C(=C(/O)c3ccc(F)cc3)C(=O)C(=O)N2CCCN(C)C)cc1 (stereo not drawn) | -0.2% | 6% | -3 | -2%
CCCN(CCC)CCNC(=O)CN1C(=O)COc2ccc(S(=O)(=O)N3CCOCC3)cc21 | -0.5% | -3% | · | -3%&0%
C/C(=N\NC(=O)c1cc2ccccc2cc1O)c1ccc(C)o1 | ? | -29% | · | -17%
Cc1ccc(C2(C(F)(F)F)N=C3Sc4cc(C)cc(C)c4N3C(=O)N2)cc1 (stereo not drawn) | -1.4% | 1% | -1 | -29%
O=C1CN(C(=O)c2ccc(Cl)c(S(=O)(=O)N3CCc4ccccc43)c2)c2ccccc2N1 | -3.3% | 28% | 6 | 21%
CCOC(=O)CN1C(=O)S/C(=C/c2cccc([N+](=O)[O-])c2O)C1=O | 6.0% | 8% | -3 | -4%
Cc1ccc(N/C=C/C(=O)c2cccs2)cc1C | ? | ? | -5 | -28%
CCOc1ccc(CN2C(=O)c3ccccc3C2C(=O)NC(C)CC)cc1OC (stereo not drawn) | -0.3% | 0% | · | 0%
CCN1CCN(CCn2c(=S)[nH]c3cc4c(cc3c2=O)OCO4)CC1 | -1.1% | 1% | -8 | -1%
CCCCC(=O)Nc1ccc(NC(=O)CCCC)nc1 | 5.5% | 0% | -6 | -21%
NC(=O)c1ccsc1NC(=O)c1ccc(N2CCCC2=O)cc1 | -2.9% | -6% | 5 | 0%
CCN(Cc1nc2cc(OC)c(OC)cc2c(=O)[nH]1)C(=O)c1ccc(S(=O)(=O)N(C)C)cc1 | -1.3% | 1% | -3 | 2%
Cc1ccccc1CS(=O)(=O)c1cnc2ccccc2n1 | -4.3% | -7% | -4 | 19%
Cc1oc(-c2cccc(Cl)c2)nc1CN1CCCC(C(=O)NCCCN2CCOCC2)C1 (stereo not drawn) | -2.2% | 7% | 2 | -1%
Cc1ccc(NC2CCCN(C(=O)CCc3scnc3C)C2)cc1C (stereo not drawn) | 0.9% | 2% | · | -8%
COCCOC(=O)c1[nH]c2c(c1C)C(=O)CC(c1ccco1)C2 (stereo not drawn) | 3.0% | 6% | -3 | 22%
O=C(OCc1cc(=O)n2cc(Br)ccc2n1)C1COc2ccccc2O1 (stereo not drawn) | -0.2% | 0% | -2 | -6%
CCc1ccc(/C(C)=N/NC(=O)c2c[nH]c3ccccc23)s1 | 1.1% | -2% | · | -23%
COc1ccccc1-c1n[nH]c(=S)n1N | -2.6% | 5% | -5 | 1%
Cc1nc2cc(NC(=O)NCCC3=CCCCC3)ccc2o1 | 0.0% | -5% | -2 | -29%
COc1ccc(OC)c(C(=O)NC(CC(N)=O)c2ccc(NCCN3CCOCC3)c([N+](=O)[O-])c2)c1 (stereo not drawn) | 2.5% | 6% | -6 | -8%
O=C(CCNC(=O)c1ccc([N+](=O)[O-])cc1)Nc1ccc(F)c(F)c1F | -1.8% | 8% | · | -2%
C/C(CC(=O)Nc1ccc(Cl)c(Cl)c1)=N\NC(N)=S | -0.7% | -11% | 1 | 0%
CCc1ccc(Oc2nnnn2-c2ccc(C(N)=O)cc2)cc1 | -3.8% | 2% | 2 | -16%
O=C1CSC(=S)N1c1cccnc1 | 0.3% | -1% | 2 | 1%

Already shown: an excerpt of the list.
SMILES | Rango complex inh | Rango dissoc inh | GLA inh pH 4.5 | miR-21 FLuc
CCc1ccc(Oc2nnnn2-c2ccc(C(N)=O)cc2)cc1 | -3.8% | 2% | 2 | -16%
O=C1CSC(=S)N1c1cccnc1 | 0.3% | -1% | 2 | 1%

Screening data (PubChem)

An excerpt; the hit share may differ from the screen's.
